High-throughput results (PubChem BioAssay)
hNpr1 antagonist: human Npr1 receptor antagonism | AID 1347048 | P16066 | HEK293 hNpr1 GloSensor cGMP, ANP-stimulated luminescence | 1.6% of 76,000 active | Potency, µM (highest dose often 46.3 µM), for inactives: at the top dose activity change, negative = inhibition, most hits filed as inhibitors; active = well fitted inhibition curve with a large enough effect; inconclusive = small, poorly fitted or top-dose-only effect; inactive = no such curve, though single readings can be large or run the other way;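 further: nearly all actives have a fitted effect of over 60% in size; nearly all hits also lower the signal before the agonist is added; a reference antagonist and vehicle were the controls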
Target sequence (P16066 whole entry, looked up): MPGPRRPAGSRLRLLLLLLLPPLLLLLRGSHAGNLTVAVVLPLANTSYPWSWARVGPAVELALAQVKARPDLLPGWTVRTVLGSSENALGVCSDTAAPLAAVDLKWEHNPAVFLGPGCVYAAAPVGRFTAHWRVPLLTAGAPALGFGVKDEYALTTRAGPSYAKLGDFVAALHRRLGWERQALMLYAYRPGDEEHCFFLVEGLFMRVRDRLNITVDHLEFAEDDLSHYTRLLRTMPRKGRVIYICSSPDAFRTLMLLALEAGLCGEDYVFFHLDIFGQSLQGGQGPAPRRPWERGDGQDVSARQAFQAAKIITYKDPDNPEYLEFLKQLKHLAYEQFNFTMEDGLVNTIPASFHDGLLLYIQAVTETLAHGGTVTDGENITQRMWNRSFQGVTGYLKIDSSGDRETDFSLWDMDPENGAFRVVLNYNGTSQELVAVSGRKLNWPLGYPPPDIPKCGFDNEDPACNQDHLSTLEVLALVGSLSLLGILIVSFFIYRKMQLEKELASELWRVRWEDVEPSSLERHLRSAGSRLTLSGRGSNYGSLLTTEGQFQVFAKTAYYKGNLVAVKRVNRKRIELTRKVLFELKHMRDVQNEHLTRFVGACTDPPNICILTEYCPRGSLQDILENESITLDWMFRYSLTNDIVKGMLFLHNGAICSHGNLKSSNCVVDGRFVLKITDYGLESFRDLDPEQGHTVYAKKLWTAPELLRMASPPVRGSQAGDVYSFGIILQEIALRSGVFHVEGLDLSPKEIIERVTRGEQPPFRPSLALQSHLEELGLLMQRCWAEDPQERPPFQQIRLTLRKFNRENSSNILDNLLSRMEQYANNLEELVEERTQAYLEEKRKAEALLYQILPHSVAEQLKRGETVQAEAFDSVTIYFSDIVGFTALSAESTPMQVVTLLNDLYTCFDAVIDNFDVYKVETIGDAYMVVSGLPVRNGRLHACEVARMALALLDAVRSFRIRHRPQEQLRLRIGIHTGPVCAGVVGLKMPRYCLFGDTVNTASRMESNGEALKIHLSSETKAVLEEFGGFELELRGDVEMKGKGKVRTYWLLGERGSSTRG
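HEK293 cells stably expressing human Npr1 and cGMP GloSensor pGS-40F, loaded 2 h with 2% GloSensor reagent, given compound 30 min at room temperature. Luminescence read before and 20 min after 0.1 nM hNppA.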
Active calls of the source: *; ? = inconclusive; & = joins results of further samples; [ ] = remark or other dose. On the % scale 0 is the no-effect control and ±100 the full control effect; potency means the concentration at half of the fitted maximal effect. Some of the compounds tested; count on the stated rates, not on these rows.

item | hNpr1 antagonist | SMILES
1 | -1% | CN(C)c1ccc(C(=O)NC2CCN(c3cc(-c4cccs4)[nH]n3)CC2)cc1
2 | 2%[70.6 µM] | O=C([C@@H]1C[C@@H](O)[C@H](O)[C@@H]2NC(=S)N(c3ccc(F)cc3)[C@@H]21)N1CCCCC1
3 | -1% | O=C(Nc1ccc(F)cc1)N1CCC(N2CC3CC(C2)[C@H]2CCCC(=O)N2C3)CC1 (some centres not stated)
4 | 1% | CC1CCC2(CC1)NC(=O)N(CC(=O)Nc1ccc(Cl)cc1)C2=O (configuration not stated)
5 | -11% | COCCNC(=O)N1CCCC(c2noc(COC)n2)C1 (configuration not stated)
6 | 10µM* | CC1=NS(=O)(=O)N(C)C=C1C(=O)OCc1nc(-c2ccc(OC(F)(F)F)cc2)no1
7 | -1% | Cc1c(CC(=O)NC2CCOCC2)c2c(n1Cc1ccccc1F)CCCC2=O
8 | 25µM* | c1ccc(-c2cnc(Nc3ccncc3)c3c2CCO3)cc1
9 | -2% | COc1ccc(C(=O)N[C@@H]2CCC[C@@H]2C(=O)NCc2cccc(OC)c2)cc1
10 | 3% | CN(C)c1ccc(CN2C[C@@H](CN3CCCCC3)[C@@H](CO)C2)cn1
11 | 1% | CCOC(=O)C1(Cc2ccccc2F)CCCN(C(=O)c2cnn(CC)c2)C1 (configuration not stated)
12 | -8% | COc1ccc(OCc2nc(C)c(CCO)c(=O)n2CC(=O)Nc2cccc(OC)c2)cc1
13 | -1% | CCCC(=O)N1CCC(N2C(=O)C(O)C23CCCCC3)CC1 (configuration not stated)
14 | -3% | O=C(c1cn(C2CCCCC2)nn1)N1CCSCC1
15 | 3% | CN(C)c1nccnc1OC1CCN(C(=O)NCCc2ccccc2)C1 (configuration not stated)
16 | -1% | Cn1nc(C2CCCN(C(=O)NCc3ccccc3)C2)n(Cc2ccccc2)c1=O (configuration not stated)
17 | 4%[70.6 µM] | COc1ccc(CN2C(=O)[C@@H]3C[C@@H](O)CN3C3(CN(Cc4ccncc4)C3)C2=O)cc1
18 | 6% | CCC(=O)N1CCC(n2c(C)cnc2C2CC2)CC1
19 | 2% | Cc1ccc(OCc2occc2C(=O)N2CCC3(CC2)CNC(=O)C3)cc1
20 | 2% | O=C(O)C[C@@H]1CCN(S(=O)(=O)c2ccc(Cl)cc2)C[C@@H]1CC1=NCCc2cc(F)ccc21

Fetched by structure from the list above:
item | hNpr1 antagonist | SMILES
15 | 3% | CN(C)c1nccnc1OC1CCN(C(=O)NCCc2ccccc2)C1 (configuration not stated)
9 | -2% | COc1ccc(C(=O)N[C@@H]2CCC[C@@H]2C(=O)NCc2cccc(OC)c2)cc1

The listing continues:
item | hNpr1 antagonist | SMILES
21 | 3% | CN(C)c1ccc(C(=O)NCc2nnc3cc(-c4nc(C5CC5)no4)ccn23)cc1
22 | -12% | COc1ccc(C(=O)N2CCC3(CC2)N(C)C(=O)CS3(=O)=O)cc1F
23 | 10µM* | O=C(Nc1cccc(-c2ccc(N3CCOCC3)nn2)c1)Nc1cc(F)ccc1F
24 | -9% | CN(C)C(=O)C1CN(C(=O)CCC(=O)c2ccc(F)cc2)CC12CCOCC2 (configuration not stated)
25 | -2% | CCc1cccc(NC(=O)[C@@H]2COCC(=O)N2Cc2ccc(OC)cc2OC)c1
26 | 5%[70.6 µM] | CC[C@H]1CN(C(=O)N2CCOCC2)CC[C@H]1CC(=O)NCc1ccccc1OC
27 | -1% | CC(C)(C)c1csc(NC(=O)Cn2nc3c(cc2=O)CCCC3)n1
28 | -5%[70.6 µM] | O=C(OCc1ccccc1)N1CCOCC12CCN(Cc1ccccc1F)CC2
29 | 3% | CCNC(=O)[C@@H]1C[C@H](N)CN1C(=O)Cc1ccc(OC)cc1OC
30 | 0% | Nc1nc(CCC(=O)N[C@@H]2COCC[C@H]2Oc2ccc(CO)cc2)cs1
31 | 0% | O=C(Cc1ccccn1)N1CCC(c2nn(-c3ccc(F)cc3)c(=O)[nH]2)CC1
32 | 10%&-20%[70.6 µM] | COC(=O)CNC(=O)C1CN(c2cccc(Cl)c2)C(=O)N1 (configuration not stated)
33 | 9% | Cc1nn(C)c(C)c1S(=O)(=O)N1CCc2nnc(C3CC3)n2CC1
34 | -1%[70.6 µM] | CN(C)Cc1cc(CC2(NCc3ccccc3O)COC2)no1
35 | -15%[70.6 µM] | COc1ccc(-c2[nH]nc3ncc(-c4ccc(F)cc4OC)nc23)c(C)c1
36 | -16%[70.6 µM] | Cc1nn2c(c1-c1ccccc1[S+](C)(=O)[O-])N(Cc1ccc3[nH]ccc3c1)CCC2
37 | 1% | O=C(NCCCN1CCOCC1)c1c(OCC2CC2)cc(=O)n2c1CCOCC2
38 | ? | COc1ccc(C2Cn3nnc(C(=O)N4CCN(C(=O)Cc5ccccc5C)CC4)c3CO2)cc1 (configuration not stated)
39 | 0% | COc1ccc(C(=O)NC2CCN(C(=O)c3cc4c(=O)[nH]c(C)cn4n3)CC2)c(C)c1
40 | 5% | COc1ccccc1OCc1cc(C(=O)NCc2ccc3c(c2)OCO3)n[nH]1

Structures from the list above that contain a Cl atom:
item | hNpr1 antagonist | SMILES
4 | 1% | CC1CCC2(CC1)NC(=O)N(CC(=O)Nc1ccc(Cl)cc1)C2=O (configuration not stated)
20 | 2% | O=C(O)C[C@@H]1CCN(S(=O)(=O)c2ccc(Cl)cc2)C[C@@H]1CC1=NCCc2cc(F)ccc21
32 | 10%&-20%[70.6 µM] | COC(=O)CNC(=O)C1CN(c2cccc(Cl)c2)C(=O)N1 (configuration not stated)

(list continues)
item | hNpr1 antagonist | SMILES
41 | -28% | O=S(=O)(c1ccccc1C(F)(F)F)N1CC(c2nc(-c3ccncc3)no2)C1
42 | 0% | COCC(=O)N1CC[C@]2(O)CCN(C(=O)c3ccccc3N(C)C)C[C@@H]2C1
43 | -12%[70.6 µM] | N#Cc1ccc(CN2CC(Oc3ccc4c(c3)OCO4)C2)cc1
44 | -3% | Cc1nn(C)cc1C(=O)N1C[C@H]2CC[C@@H]1CN(C(=O)c1cccnc1)C2
45 | -20% | COc1ccc(-c2noc([C@@H]3CCCN3C(=O)Cc3cccc(C)c3)n2)cc1
46 | 1% | CN(Cc1noc2c1CCCC2)C(=O)C1CCN(C(=O)C2CC2)CC1
47 | 5% | O=C(Nc1cccc(Cl)c1F)N1CCCC1c1nncn1-c1ccccc1 (configuration not stated)
48 | -28%[70.6 µM] | COc1ccccc1-c1[nH]nc2ncc(-c3ccccc3O)nc12
49 | 2% | Cc1noc([C@H]2CCN(Cc3cc(F)ccc3F)C[C@H]2NC(=O)C2CC2)n1
50 | 4% | CNC(=O)N1CCC(C2CCN(C(=O)c3ccc(OC)nc3)C2)CC1 (configuration not stated)
51 | -1% | COc1ccc(C2Cn3cnc(C(=O)N4CCC(C(=O)NCc5ccc(C)cc5)CC4)c3CO2)cc1 (configuration not stated)
52 | 2% | CC1(C)CN(C(=O)c2ccccc2N2CCC(=O)NC2=O)CC[C@]1(C)O
53 | 1% | COCC(=O)N1CCCC(C(=O)N2CCN(c3ccc(F)cc3)CC2)CCNC(=O)CC1 (configuration not stated)
54 | -28%[70.6 µM] | Fc1ccc(CN2CC[C@H](c3nc4cc(Cl)ccc4o3)C2)cc1F
55 | 1% | COC1CCCN(C(=O)c2cnc(Cc3c(Cl)cccc3Cl)[nH]c2=O)C1 (configuration not stated)
56 | -8%[70.6 µM] | N#Cc1cccc(-c2n[nH]c3c2CC(=O)N(Cc2ccccc2)C3)c1
57 | 1% | CN1C[C@@H]2CCCN3CCC[C@@H]([C@H]23)[C@H]1CCCC(=O)Nc1ccc2c(c1)OCCO2
58 | -2% | c1cc(CN2CCc3c(sc4ncnc(N5CCOCC5)c34)C2)ccn1
59 | ? | Cc1oc2c(c1C(=O)NCc1ccc3c(c1)OCO3)CN(Cc1ccc(F)cc1)CC2
60 | -24% | O=C(Cc1cccc(F)c1)N1CCC(Cc2nc(C3CCOCC3)no2)CC1
61 | 5%[70.6 µM] | COc1ccc2c(c1)CCN=C2C[C@H]1CN(C(=O)Cc2cccs2)CC[C@H]1CC(=O)O
62 | 0%[70.6 µM] | CC(C)CS(=O)(=O)N[C@H](C)c1onc(-c2ccc(F)cc2)c1C(=O)O
63 | 0% | COc1ccc(C(=O)N2CC(c3nc(CCOc4cccc(C)c4)no3)C2)cc1F
64 | -19% | O=C(c1ccccn1)N1CCC2(CC1)NC(=O)N(Cc1cccc(Cl)c1)C2=O
65 | -19% | Cc1ncoc1C(=O)N1CCC2(CC1)CC(N(Cc1ccccc1)C1CC1)CCO2 (configuration not stated)
66 | -1% | C[C@]1(CO)[C@H]2Cc3sc(NC(=O)c4ccc(F)cc4)nc3[C@@H](CC(=O)N3CCCCC3)[C@]2(C)CC[C@H]1O
67 | 1% | COCc1nc(CCNC(=O)C2CCC2)no1
68 | 2% | Cn1cnc(S(=O)(=O)N2CCCC(C(=O)NCc3ccc(F)cc3)CCNC(=O)CC2)c1 (configuration not stated)
69 | -2%[70.6 µM] | COc1ncccc1-c1nccc2c(=O)cc(N(C)c3ccccc3)oc12
70 | -24%[70.6 µM] | CC(C)(C)c1cc(C[C@@H]2CC[C@H](O)[C@@H](CNC(=O)c3cccc(F)c3)O2)no1
71 | 5% | COc1ccc(C(=O)N2C[C@@H]3C[C@H](C2)c2ccc(NS(=O)(=O)c4cccc(F)c4)c(=O)n2C3)cc1
72 | ? | N#Cc1cccc(-c2ccnc(N[C@H]3CO[C@H]4[C@@H]3OC[C@H]4OC(=O)Nc3cccc(C(F)(F)F)c3)n2)c1
73 | ? | Cc1n[nH]c(C)c1C(N)C(=O)N1CCN(Cc2ccccc2C#N)CC1 (configuration not stated)
74 | -1% | CN(CC1CCOCC1)C(=O)CCCc1ccccc1
75 | -1% | CCN(CC)Cc1cccc(NS(=O)(=O)NCc2ccccc2)c1
76 | -4% | COc1ccc(C[C@H](NC(=O)C2=C[C@@H](NS(=O)(=O)c3cccc(C(F)(F)F)c3)[C@@H](O)[C@H](O)C2)C(N)=O)cc1
77 | 2% | CN(Cc1cccc(C(F)(F)F)c1)Cc1ccccc1OCC(=O)O
78 | -2%[70.6 µM] | Cc1ccc2c(c1)N1C(=O)OC[C@@H]1CCN(C(=O)Nc1ccccc1)C2
79 | 9% | CNC(=O)c1cc[nH]c1C1CCCN(C(=O)c2ccc(C)[nH]c2=O)C1 (configuration not stated)
80 | 0% | COc1ccc2[nH]c(CN3CCC(CCC(=O)NCc4ccc(F)cc4)CC3)c(C)c2c1

Sorted by the number under hNpr1 antagonist (lowest first): some entries from above.
| No. | Structure | hNpr1 antagonist |
| --- | --- | --- |
| 65 | Cc1ncoc1C(=O)N1CCC2(CC1)CC(N(Cc1ccccc1)C1CC1)CCO2 (configuration not stated) | -19% |
| 76 | COc1ccc(C[C@H](NC(=O)C2=C[C@@H](NS(=O)(=O)c3cccc(C(F)(F)F)c3)[C@@H](O)[C@H](O)C2)C(N)=O)cc1 | -4% |
| 66 | C[C@]1(CO)[C@H]2Cc3sc(NC(=O)c4ccc(F)cc4)nc3[C@@H](CC(=O)N3CCCCC3)[C@]2(C)CC[C@H]1O | -1% |
| 80 | COc1ccc2[nH]c(CN3CCC(CCC(=O)NCc4ccc(F)cc4)CC3)c(C)c2c1 | 0% |
| 67 | COCc1nc(CCNC(=O)C2CCC2)no1 | 1% |

The list continues:
item | hNpr1 antagonist | SMILES
81 | 1%[70.6 µM] | Cc1ccc(NC(=O)N[C@@H]2C=C(C(=O)N[C@H](CC(C)C)C(N)=O)C[C@@H](O)[C@@H]2O)cc1
82 | 0% | COc1ccc(OC)c(NC(=O)CC2CCOCC2)c1
83 | -1% | CCC1CN(Cc2nc(-c3ccc(OC)cc3F)oc2C)CCN1C(C)C (configuration not stated)
84 | -24%[70.6 µM] | CC1=C[C@@H](CNC(=O)Nc2ccccc2)[C@H](C(C)C)C[C@H]1CC(=O)NCc1cccnc1
85 | -12% | O=C1NCCCCCCN(C(=O)Nc2ccccc2)[C@H]2CCCC[C@@H]12
86 | 0% | Cc1cc(C)cc(C(=O)N2CCCC3(C2)NC(=O)N(Cc2cccc(Cl)c2)C3=O)c1 (configuration not stated)
87 | 4% | O=C(NCC1CC1)c1cccc(OC2CN(Cc3cccc(F)c3F)C2)c1
88 | -1% | COc1ccccc1N1CCN([C@H]2[C@@H]3OC[C@@H](O3)[C@@H](NC(=O)NC3CCCCC3)[C@@H]2O)CC1
